Screens from PubChem BioAssay.
GIV Gai3 FP: GIV-Galpha-i interaction inhibition; 210,000 compounds, 0.42% hits; Galpha-i3/FITC-GIV peptide fluorescence polarization, 90 min; stronger effect = lower value; scaled: aluminum fluoride 0%, vehicle 100%; percent of control (FP), % (no concentration beside the values); P08753;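 active means replicate mean at 85% of control or lower, very high polarization wells dropped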;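 further: wells of about 15 µL received 100 nL stock; the first replicate is given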
Target sequence (P08753 whole entry, looked up): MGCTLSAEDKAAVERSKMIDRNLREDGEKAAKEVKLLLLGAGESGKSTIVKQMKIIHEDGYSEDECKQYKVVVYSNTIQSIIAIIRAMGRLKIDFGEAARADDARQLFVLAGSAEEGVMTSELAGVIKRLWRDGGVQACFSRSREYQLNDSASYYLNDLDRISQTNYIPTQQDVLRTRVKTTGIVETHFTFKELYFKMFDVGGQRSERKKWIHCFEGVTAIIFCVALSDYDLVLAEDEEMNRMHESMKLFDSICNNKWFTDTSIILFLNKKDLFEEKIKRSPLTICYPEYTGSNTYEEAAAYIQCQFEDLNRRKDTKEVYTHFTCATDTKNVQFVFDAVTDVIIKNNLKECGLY
Sa growth inh: blocks Staphylococcus aureus growth; S. aureus RN4220 growth, OD600, 20 h, 42 °C; stronger effect = lower value; relative growth, % (concentration not given with the values); 170,000 compounds, 0.53% hits;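 active means growth at 42 °C up to 50% and 20 or more points under that at 30 °C, or under 10% at both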;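 further: 300 nL library stock went into each well; scaled to the means of positive and negative controls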
HCMV UL50-53 inh: cytomegalovirus nuclear egress complex inhibition; HTRF UL50-UL53 interaction, normalized percent inhibition; inhibition, % (test concentration not listed); 190,000 compounds, 0.15% hits;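 active means both replicates at 50% or more, plus weaker picks with an unusually low signal ratio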;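 further: stock transfer was 100 nL into about 20 µL; 0% = negative control wells and 100% = wells with untagged competitor protein; inactives centre near -12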
Sa growth inh second temp: further read-out of Sa growth inh, marked with its call; relative growth, %; measured here: growth at 30 °C;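 optical density after 20 h as mean of two plates; 100% = untreated growth and lower means inhibition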
Numbers without * were called inactive; . = no result given.

| cpd | smiles | GIV Gai3 FP | Sa growth inh | Sa growth inh second temp | HCMV UL50-53 inh |
| --- | --- | --- | --- | --- | --- |
| 1 | O=C1CCCN1CP(=O)(O)CCc1ccccc1 | 99 | 109 | 98 | -11 |
| 2 | CCCC(=O)c1ccc(N=Cc2ccc(Cl)cc2Cl)cc1 | . | 98 | 81 | -1 |
| 3 | C=CCOc1ccc(-c2nn3c(-c4ccoc4C)nnc3s2)cc1 | 108 | 96 | 65 | . |
| 4 | COC(=O)C(CC(C)C)N1C(=O)c2cc(Cl)c(Cl)cc2C1=O (stereo unspecified) | 100 | 91 | 72 | -6 |
| 5 | Cc1nc2ccccc2nc1OCc1ccc(Br)cc1 | 102 | 116 | 91 | -16 |
| 6 | O=C(C(c1ccccc1)c1ccccc1)N1CCc2ccccc21 | . | 114 | 105 | 8 |
| 7 | Cc1cccc(NC(c2ccccn2)c2ccc3cccnc3c2O)n1 (stereo unspecified) | 101 | . | . | -53 |
| 8 | Cc1ccc(S(=O)(=O)N2Cc3ccccc3CC2C(=O)NC(C)C)cc1 (stereo unspecified) | . | 104 | 87 | -18 |
| 9 | CNC(=S)NCc1sc2ccccc2c1C | 103 | 93 | 73 | -7 |
| 10 | O=C(C1CC(c2ccc(Cl)cc2)=NO1)N1CCCCC1 (stereo unspecified) | 102 | . | . | -21 |
| 11 | CC(c1ccco1)N(C(=O)Nc1ccc(Cl)cc1)c1ccccn1 (stereo unspecified) | . | 75 | 82 | -14 |
| 12 | Cc1cc(C)nc(SC2CCCCC2=O)n1 (stereo unspecified) | 107 | 107 | 88 | 5 |
| 13 | Cc1cc(C)cc(C(=O)NN2CCOCC2)c1 | 102 | 103 | 106 | 0 |
| 14 | O=C(CN(Cc1cccs1)C(=O)c1csnn1)NC1CCCC1 | 98 | 117 | 95 | -23 |
| 15 | CCc1nn(CC(=O)NCCCN2CCC(Cc3ccccc3)CC2)c(=O)c2cc3sccc3n12 | 107 | 100 | 86 | -21 |
| 16 | Cc1onc(-c2c(Cl)cccc2Cl)c1C(=O)NC(C)(C)C | 102 | 92 | 87 | -2 |
| 17 | CN(C)C(=S)NCc1ccccc1 | . | 89 | 87 | -4 |
| 18 | CCCN(C(=O)c1cc2c(=O)oc3ccccc3c2s1)c1ccccc1C | 105 | 95 | 93 | -6 |
| 19 | O=C(CCCCCn1c(=O)[nH]c2ccccc2c1=O)N1CCN(c2cccc(C(F)(F)F)c2)CC1 | 95 | 109 | 87 | . |
| 20 | Cc1nc(-c2noc(C(=O)NN)n2)cs1 | 110 | 88 | 70 | -25 |
| 21 | CCCCC(CC)C(=O)Nc1cc(OC)ccc1OC (stereo unspecified) | . | 95 | 91 | -23 |
| 22 | Cc1nnc2c(=O)n(CC(=O)Nc3ccccc3)c3ccccc3n12 | 100 | . | . | -31 |
| 23 | Cc1c(C(=O)Nc2nccs2)nnn1-c1ccccc1Cl | 104 | 106 | 94 | . |
| 24 | CCCc1nc2ccc(NC(=O)c3ccco3)cc2c(=O)n1Cc1ccccc1Cl | 101 | 96 | 79 | -30 |
| 25 | Cc1ccc(N=Cc2nc(-c3ccc(Br)cc3)oc2O)c([N+](=O)[O-])c1 | 111 | . | . | -29 |

Overlap with the part before: 6 compounds; new compounds follow.
| cpd | smiles | GIV Gai3 FP | Sa growth inh | Sa growth inh second temp | HCMV UL50-53 inh |
| --- | --- | --- | --- | --- | --- |
| 20 | Cc1nc(-c2noc(C(=O)NN)n2)cs1 | 110 | 88 | 70 | -25 |
| 21 | CCCCC(CC)C(=O)Nc1cc(OC)ccc1OC (stereo unspecified) | . | 95 | 91 | -23 |
| 22 | Cc1nnc2c(=O)n(CC(=O)Nc3ccccc3)c3ccccc3n12 | 100 | . | . | -31 |
| 23 | Cc1c(C(=O)Nc2nccs2)nnn1-c1ccccc1Cl | 104 | 106 | 94 | . |
| 24 | CCCc1nc2ccc(NC(=O)c3ccco3)cc2c(=O)n1Cc1ccccc1Cl | 101 | 96 | 79 | -30 |
| 25 | Cc1ccc(N=Cc2nc(-c3ccc(Br)cc3)oc2O)c([N+](=O)[O-])c1 | 111 | . | . | -29 |
| 26 | CCN(Cc1ccccc1)Cc1c(O)ccc2c(=O)c(-c3ccc(Cl)cc3Cl)coc12 | 104 | 104 | 90 | 5 |
| 27 | CC(C)CN(C(=O)CN1CCC(C)CC1)c1c(N)n(CC(C)C)c(=O)[nH]c1=O | . | 93 | 96 | -12 |
| 28 | O=C(Nn1c(-c2ccc(Br)cc2)nc2ccccc2c1=O)c1ccccc1[N+](=O)[O-] | 101 | . | . | -30 |
| 29 | Cc1cc2c(cc1C)C(C)CC(C)(C)N2 (stereo unspecified) | 95 | 85 | 115 | -4 |
| 30 | CCNC(=O)N1c2ccccc2Sc2ccccc21 | 107 | 111 | 98 | -7 |
| 31 | O=C1OCCN/C1=C/C(=O)c1ccccc1 | 103 | 110 | 86 | -22 |
| 32 | COc1ccc(-c2noc(-c3ccc[nH]c3=O)n2)cc1OC | 99 | . | . | -53 |
| 33 | O=C(O)C(O)C(O)C(=O)Nc1ccc(Cl)cc1 (stereo unspecified) | 102 | 101 | 84 | -6 |
| 34 | NC(=O)NC(Cc1ccccc1)C(=O)NC1CCCC1 (stereo unspecified) | . | 92 | 88 | -13 |
| 35 | Cc1ccn2c(=O)cc(COc3ccc(NC(=O)C(C)(C)C)cc3)nc2c1 | 99 | 90 | 88 | . |
| 36 | Cc1onc(-c2ccccc2)c1-c1csc(CC#N)n1 | 117 | 106 | 68 | 0 |
| 37 | CC(C)CS(=O)(=O)c1oc(-c2cccs2)nc1S(=O)(=O)c1ccccc1 | 101 | 23* | 50* | -20 |
| 38 | CCOC(=O)c1ccc(NC(=O)c2oc3c(c2C)-c2nn(Cc4ccccc4Cl)cc2CC3)cc1 | 99 | 104 | 91 | -1 |
| 39 | COC(=O)[C@H](Cc1ccc(O)cc1)NC(=O)c1cccc(Cl)c1 | 99 | 94 | 83 | -6 |
| 40 | O=C(Nc1cc(Cl)ccc1Cl)C(O)(c1ccccc1)c1ccccc1 | 98 | 95 | 75 | . |
| 41 | Fc1ccccc1-c1ncc(-c2ccc(Cl)cc2)o1 | 98 | 94 | 81 | . |
| 42 | COc1ccc(OCC(=O)Nc2cc(C)nn2-c2ncnc3c2cnn3-c2ccc(F)cc2)cc1 | 109 | . | . | -4 |
| 43 | O=C(Nc1ccc(Oc2ncnc3sc4c(c23)CCC4)cc1)c1ccco1 | . | 82 | 92 | -10 |
| 44 | CCOC(=O)C1=C(C)NC(=O)C(C(N)=O)C1c1ccccc1 (stereo unspecified) | 99 | 116 | 88 | -15 |
| 45 | CCc1ccc(OCC(=O)NCC(c2ccc(Cl)cc2)N2CCOCC2)cc1 (stereo unspecified) | 110 | 89 | 86 | -11 |
| 46 | CCOc1ccccc1NC(=O)Cn1c(=O)n(-c2ccc(F)cc2)c(=O)c2sc3ccccc3c21 | 102 | 108 | 91 | -19 |
| 47 | CC(C)COc1ccc2c3c(c(=O)oc2c1)CCCC3 | 97 | 102 | 84 | . |
| 48 | CCn1c(=O)cc(OCC(=O)Nc2ccc(C)c(F)c2)c2ccccc21 | 106 | 98 | 92 | -22 |
| 49 | CCn1c(CSc2nc3ccccc3s2)nnc1SC(C)C(=O)Nc1ccc(N(C)C)cc1 (stereo unspecified) | . | 116 | 98 | 6 |
| 50 | CCc1ccc(N2CCN(S(=O)(=O)c3ccccc3)CC2)cc1 | 105 | 106 | 100 | -9 |

More entries:
| cpd | smiles | GIV Gai3 FP | Sa growth inh | Sa growth inh second temp | HCMV UL50-53 inh |
| --- | --- | --- | --- | --- | --- |
| 51 | O=C(NCc1ccco1)c1csc2c1CCCC2 | 99 | 102 | 86 | -21 |
| 52 | CC(=O)N1c2ccccc2N(C(C)=O)C(C)C1C (stereo unspecified) | 101 | 79 | 89 | -2 |
| 53 | CCCOC(=O)c1c(NC(=O)c2cc3ccccc3c(=O)o2)sc2c1CCC(C)C2 (stereo unspecified) | 107 | 94 | 92 | 10 |
| 54 | Cc1[nH]c(C(=O)N2CCN(c3ccccc3F)CC2)c(C)c1S(=O)(=O)N1CCOCC1 | 107 | . | . | -25 |
| 55 | COc1cccc(NC(=O)c2cccc(Nc3ccc(-c4cccc(C)c4)nn3)c2)c1 | 110 | . | . | 4 |
| 56 | COc1ccccc1N1CCN(C(C)C(=O)NCC2CCCCC2)CC1 (stereo unspecified) | . | 84 | 94 | -24 |
| 57 | COc1cc(S(=O)(=O)N2CC(C)OC(C)C2)c(OC)cc1Cl (stereo unspecified) | 99 | 98 | 106 | 16 |
| 58 | COC(=O)C1=CN(CC23CC4CC(CC(C4)C2)C3)C=C(C(=O)OC)C1c1cccs1 | . | 97 | 98 | -8 |
| 59 | CCSc1nnc2c(=O)n(C)c(=O)n(C)c2n1 | 93 | 89 | 78 | -132 |
| 60 | COCCNC(=O)C(=O)Nc1c2c(nn1-c1ccccc1)CS(=O)(=O)C2 | 105 | 121 | 93 | . |
| 61 | Cc1cc(C)c(C#N)c(NC2CCCCC2)n1 | 104 | 108 | 89 | -3 |
| 62 | Cc1sc2ncnc(OCc3ccc(C#N)cc3)c2c1C | . | 94 | 91 | -10 |
| 63 | O=c1cc(CN(CCO)CCO)nc2nc(-c3ccccc3)[nH]n12 | 94 | . | . | -24 |
| 64 | Cc1ccc(S(=O)(=O)Nc2cc(C(=O)NC3CCCC(C)C3C)ccc2N2CCCCC2)cc1 (stereo unspecified) | 102 | 90 | 82 | . |
| 65 | COc1ccc(CC(=O)Nc2sc3c(c2C(=O)Nc2ccccc2)CCCCC3)cc1 | 107 | 100 | 84 | -32 |
| 66 | CC1CCN(C(=O)COC(=O)C2(S(=O)(=O)c3ccc(Br)cc3)CCCC2)CC1 | . | 100 | 94 | 5 |
| 67 | CCN1C(=O)NC(c2ccc([N+](=O)[O-])cc2)C(C(=O)OCCOc2ccccc2)=C1C (stereo unspecified) | 101 | . | . | 0 |
| 68 | CCOC(=O)c1[nH]c(=O)[nH]c1CN(Cc1ccco1)Cc1[nH]c(=O)[nH]c1C(=O)OCC | 98 | 103 | 92 | -18 |
| 69 | Cn1cnc(S(=O)(=O)NCc2csc(-c3cccs3)n2)c1 | 103 | 96 | 64 | -36 |
| 70 | CCOc1ccccc1NC(=O)C(CC)n1nc(-c2ccccc2)c2c(c1=O)CCCC2 (stereo unspecified) | 105 | . | . | -6 |
| 71 | COc1ccc(Cl)cc1NC(=O)Cc1coc2cc(C)cc(C)c12 | 106 | 111 | 96 | 7 |
| 72 | COC(=O)C1=C(c2ccccc2)c2ccccc2S(=O)(=O)N1CC(=O)Nc1ccc(F)cc1F | 106 | . | . | 5 |
| 73 | O=C(NC(c1ccccc1)c1c(O)ccc2ccccc12)C1CCCCC1 (stereo unspecified) | . | 103 | 105 | 0 |
| 74 | Cn1ccnc1S(=O)(=O)/C(C#N)=C/c1ccc(C(F)(F)F)cc1 | 100 | 113 | 95 | 4 |
| 75 | O=C(CSc1nnc(N2C(=O)c3ccccc3C2=O)s1)NC1CC1 | 107 | 98 | 88 | -8 |

Other compounds follow.
| cpd | smiles | GIV Gai3 FP | Sa growth inh | Sa growth inh second temp | HCMV UL50-53 inh |
| --- | --- | --- | --- | --- | --- |
| 76 | Cc1ccccc1C(=O)Nc1nc2c(C)csc2c(=O)s1 | 102 | 78 | 93 | -15 |
| 77 | Cc1ccc(S(=O)(=O)N(CC(=O)Nc2ccc3c(c2)OCO3)c2cccc(Br)c2)cc1 | 100 | . | . | 1 |
| 78 | Cc1nn(-c2ccccc2)c(C)c1C(=O)N1CCCc2ccccc21 | . | 67 | 91 | -34 |
| 79 | COc1cc(OC)c2c(=O)c(-c3ccc(Cl)cc3)coc2c1 | . | 91 | 83 | -8 |
| 80 | O=C(O)CSCc1nc(-c2cnc3n(c2=O)CCS3)no1 | 105 | 101 | 98 | 7 |
| 81 | Cc1cc(OC(=O)c2nn(-c3ccccc3)nc2C)n(-c2ccccc2)n1 | 110 | 92 | 92 | -10 |
| 82 | Cc1ccc(-c2nc3c4cnn(-c5cc(Cl)ccc5Cl)c4ncn3n2)cc1 | 101 | 96 | 90 | -2 |
| 83 | N#Cc1cccc(NC(=O)CC(NC(N)=O)c2ccccc2Cl)c1 (stereo unspecified) | . | 68 | 77 | -5 |
| 84 | CC(C)c1nc2ccc(NC(=O)C3CCCCC3)cc2[nH]1 | . | 106 | 92 | -2 |

Copied from the list:
CCOC(=O)c1ccc(NC(=O)c2oc3c(c2C)-c2nn(Cc4ccccc4Cl)cc2CC3)cc1 @ Sa growth inh second temp: 91
Cc1ccc(N=Cc2nc(-c3ccc(Br)cc3)oc2O)c([N+](=O)[O-])c1 @ GIV Gai3 FP: 111
O=C(C1CC(c2ccc(Cl)cc2)=NO1)N1CCCCC1 (stereo unspecified) @ GIV Gai3 FP: 102
Cc1ccccc1C(=O)Nc1nc2c(C)csc2c(=O)s1 @ Sa growth inh second temp: 93
Cc1ccc(-c2nc3c4cnn(-c5cc(Cl)ccc5Cl)c4ncn3n2)cc1 @ HCMV UL50-53 inh: -2
CCN(Cc1ccccc1)Cc1c(O)ccc2c(=O)c(-c3ccc(Cl)cc3Cl)coc12 @ HCMV UL50-53 inh: 5
O=C(O)CSCc1nc(-c2cnc3n(c2=O)CCS3)no1 @ Sa growth inh second temp: 98

An unsorted share of the library (roughly 0.83% active in at least one column).
